Vaccinia mCherry – inhibitors of vaccinia virus infection (mCherry reporter signal); 0.63% of 310,000 active; Vaccinia virus mCherry reporter infection, fluorescence; about a quarter of the inactives have no number; Potency, µM (highest dose often 36.5 µM), for inactives: at the top dose activity change, negative = inhibition, actives largely listed as inhibitors; active = well fitted inhibition curve with a large enough effect; inconclusive = small, poorly fitted or top-dose-only effect; inactive = no such curve, though single readings can be large or run the other way; tested in A549 cells; further: nearly all actives have a fitted effect of over 35% in size; inactives centre near -10
Vaccinia Venus – vaccinia inhibition (Venus reporter) | AID 720580 | 0.46% of 330,000 active | Vaccinia virus Venus reporter expression, fluorescence | Potency, µM (doses to about 36.5 µM), inactives show at the top dose activity change, negative = inhibition, actives largely listed as inhibitors; active means well fitted inhibition curve with a large enough effect; inconclusive means small, poorly fitted or top-dose-only effect; inactive means no such curve, though single readings can be large or run the other way; tested in A549 cells; further: nearly all actives have a fitted effect of over 30% in size; inactives centre near -10
An asterisk follows results filed as active; i = inactive; ? = inconclusive; / = no result given; [ ] = another dose, or the depositor's remark. On the % scale 0 is the no-effect control and ±100 the full control effect; potency means the concentration at half of the fitted maximal effect.

Order of values: Vaccinia mCherry, Vaccinia Venus
CC1CCc2nc(NC(=O)CN3CCOCC3)sc2C1 (stereo not drawn)
→ /, -15%
N#Cc1c(Nc2ccc(F)cc2)sc(C(=O)c2ccccc2)c1N
→ -24%, -24%
CCOC(=O)c1ccc(NC(=O)Nc2ccccn2)cc1
→ -13%, -22%
CCC(CC)c1nnc(NC(=O)c2ccco2)s1
→ -7%, -17%
CN(C)C1(CNC(=O)C2CCN(S(=O)(=O)c3cccc(C(F)(F)F)c3)CC2)CCCCC1
→ -13%, -20%
CCC1CCCN1Cn1cnc2c([nH]c3ccc(OC)cc32)c1=O (stereo not drawn)
→ -3%[1.46 µM], -2%
Cc1ccc(CN2C(=O)N/C(=C\c3ccc(N4CCOCC4)cc3)C2=O)cc1
→ ?, ?
O=C(O)C1CCCN1C(=O)Nc1ccccc1 (stereo not drawn)
→ /, 20%
Cc1ccc(C)c(Cn2c(C(C)NC(=O)c3ccccc3)nc3ccccc32)c1 (stereo not drawn)
→ -7%, -14%
COc1ccc(CC(C)CC(=O)Nc2ccc(OC)cc2)cc1 (stereo not drawn)
→ -24%, -19%

(continued)
Order of values: Vaccinia mCherry, Vaccinia Venus
CCN(CC)C(=O)C(=O)c1cccn1-c1cccc(Cl)c1C#N
→ -4%, -2%
Cc1cccc(OCCC(=O)Nc2ccc(C)c(S(=O)(=O)N3CCCCC3)c2)c1
→ ?, ?
O=C(/C=C\c1ccc2c(c1)OCO2)NC1(C(=O)Nc2ccc3c(c2)OCCO3)CCCCC1
→ -13%, -14%
Cn1c(-c2ccc(-c3ccccc3)cc2)c[nH]c1=S
→ /, ?
O=C(c1ccc(Cl)cc1)n1nc(-c2ccccc2)nc1NCc1ccco1
→ -8%[7.34 µM], -8%[7.34 µM]
COc1ccc(CNC(=O)C2CCN(S(=O)(=O)c3cccc(-c4noc(C)n4)c3)CC2)cc1
→ -5%, -11%
O=C(c1ccc(Cl)cc1)C1CCCN(Cc2cccc3cccnc23)C1 (stereo not drawn)
→ ?, ?
O=C(Nc1ccccc1)/C(=C/c1cccnc1)NC(=O)c1ccccc1
→ -1%[7.34 µM], -15%[7.34 µM]
O=C(C1=C[C@@H](C2CC2)C[C@@H](OCCCCO)O1)N1CCN(Cc2ccccc2)CC1
→ i, -15%
COc1ccccc1CNC(=O)C[C@@H]1CC[C@H]2[C@@H](COC[C@H](O)CN2Cc2ccccc2)O1
→ -23%, -7%

More records:
Order of values: Vaccinia mCherry, Vaccinia Venus
O=C(Cn1ccc2ccccc2c1=O)NCCC(=O)NC1CCN(Cc2ccccc2)CC1
→ -15%, -14%
Cc1ccc(N/N=C/c2c(O)n(-c3ccccc3)c(=O)[nH]c2=O)cc1
→ -20%, -7%
C/C(=N\NC(N)=O)c1ccc(Cl)cc1
→ i, -4%
N#Cc1ccccc1Cn1c(=O)n(CCC(=O)NCc2ccco2)c(=O)c2ccccc21
→ -13%, -9%
O=S(=O)(Nc1ncccn1)c1cc(Cl)ccc1Cl
→ -6%, 0%
Cc1cccc(N2CCN(C(=O)C3CCN(S(=O)(=O)Cc4ccccc4)CC3)CC2)c1C
→ -16%, -21%
Cc1noc(C)c1C(=O)OC(C)C(=O)Nc1ccc(S(=O)(=O)NC(C)C)cc1 (stereo not drawn)
→ -10%, -8%
COc1ccccc1/C=N/NC(=O)CNC(=O)c1ccc(S(=O)(=O)N(C)C)cc1
→ -2%, -17%
CC(C)(C)OC(=O)N1CCc2onc(-c3ccccc3F)c2C1=O
→ -12%, -7%
Cc1cc(Cl)ccc1C(=O)C1CCCN(C(=O)CCn2cncn2)C1 (stereo not drawn)
→ i, -7%

Next section:
Order of values: Vaccinia mCherry, Vaccinia Venus
Cn1cnc2c1c(=O)n(Cc1cccc(Cl)c1)c(=O)n2C
→ -23%, -9%
Cc1ccc2nc(N(Cc3cccnc3)C(=O)Cc3ccccc3)sc2c1
→ i, -7%
Cc1cccn2c(=O)c3cc(C(=O)NCCc4ccc(S(N)(=O)=O)cc4)n(C)c3nc12
→ -11%, -9%
Cc1ccc(-c2[nH]nc(N)c2N=Nc2ccccc2C)cc1
→ ?, ?
Cc1ccc(CNC(=O)c2cc(-c3ccccc3C)n(CC3CC(c4cccc([N+](=O)[O-])c4)=NO3)n2)cc1 (stereo not drawn)
→ ?, -18%
CCOC(=O)C1(C)CCCN1C(=O)c1cccc(F)c1 (stereo not drawn)
→ 4%, 4%
C#CCOCCOCCOCCNc1nc(N2CCN(C(=O)C([C@@H](C)O)n3cc([C@@H](N)CCCCN)nn3)CC2)nc(N2CCN(C(=O)[C@H](CCC(=O)O)n3cc([C@@H](N)[C@H](C)CC)nn3)CC2)n1 (stereo partly drawn)
→ i, -14%
CC(C)(C)OC(=O)N1CCC(CC2CC(c3cccc(Br)c3)=NO2)(C(=O)O)CC1 (stereo not drawn)
→ -6%, 3%
CCOC(=O)c1cccc(NC(=O)C2Cc3ccccc3N2C(=O)c2ccccc2)c1 (stereo not drawn)
→ -6%, -10%
COc1ccc(C(=O)Oc2cc(C)c(CN3CCOCC3)cc2C)cc1OC
→ -16%, -16%

Continued.
Order of values: Vaccinia mCherry, Vaccinia Venus
COCCNC(=S)N(C)C1(c2ccccc2Cl)CCCCC1=O (stereo not drawn)
→ i, -11%
COc1ccc(-c2noc(-c3cccc(Cl)c3)n2)cc1OC
→ -16%, -6%
COc1cc(C)ccc1OCCOCCN(C)Cc1ccccc1
→ -18%, -16%
COc1ccc(OC)c(NC(=O)C2(C)CCN2C(C)C)c1 (stereo not drawn)
→ i, -11%
COc1ccc(CN2CCNC(=O)C2CC(=O)NC2CCCCCC2)c(C)c1C (stereo not drawn)
→ -1%, -12%
C=CCn1c2ccccc2c(=O)c2cc(C#CC3(O)CCCCC3)ccc21
→ -17%, ?
Cn1c(CCNC(=O)c2ccccc2F)nnc1SCC(=O)Nc1nncs1
→ 4%, -4%
COc1ccc(Cn2c(=O)[nH]c3cc(C(=O)N4CCN(c5cccc(OC)c5)CC4)ccc3c2=O)cc1
→ -17%, -7%
COc1ccc2sc(-c3ccccc3OC)c(-c3ccc4c(c3)OCCO4)c2c1
→ i, -4%
CCC(C)NC(=O)COc1ccc(OCc2ccccc2)cc1 (stereo not drawn)
→ -1%, -13%

Further results follow:
Order of values: Vaccinia mCherry, Vaccinia Venus
CCOC(=O)Cn1nnnc1CN(Cc1ccc(OC)cc1)Cc1cc2cc(C)ccc2[nH]c1=O
→ -11%, -8%
Cc1ccc(S(=O)(=O)c2cn(CC(=O)Nc3ccc(F)cc3)c3cc4c(cc3c2=O)OCO4)cc1
→ -10%, -9%
CC(C)(C)n1nnnc1C(c1cccs1)N1CCN(C/C=C/c2ccccc2)CC1 (stereo not drawn)
→ 6%, -9%
N=C1C(c2nc(-c3ccc(F)cc3)cs2)=C(O)CN1CCCN1CCOCC1
→ /, -20%
COc1ccccc1OCCC(=O)OCC(=O)NCc1ccc(Cl)cc1
→ i, -3%
CCCn1c(SCC(=O)c2cc(C)n(-c3ccc4c(c3)OCO4)c2C)n[nH]c1=O
→ -20%, -23%
C[C@H]1COC(=O)[C@@H](Cc2ccc(F)cc2)C/C=C\C[C@H](CC(=O)NCCO)C(=O)N1
→ i, -7%
OC(C#CCN1CCOCC1)c1cccs1 (stereo not drawn)
→ -14%, -4%
CCOC(=O)CSc1nc2sc3c(c2c(=O)n1-c1ccccc1)CCN(C(C)C)C3
→ i, -10%
CC(C)(C)C(=O)NC(=S)Nc1cc(C(F)(F)F)ccc1N1CCOCC1
→ /, -9%

In a second layout: entries from further up.
> CCOC(=O)CSc1nc2sc3c(c2c(=O)n1-c1ccccc1)CCN(C(C)C)C3
  Vaccinia mCherry: i | Vaccinia Venus: -10%
> CC(C)(C)C(=O)NC(=S)Nc1cc(C(F)(F)F)ccc1N1CCOCC1
  Vaccinia mCherry: / | Vaccinia Venus: -9%

Later entries:
canonical_smiles,Vaccinia mCherry,Vaccinia Venus
Cc1ccc(CC2SC(N=C(N)N)=NC2=O)cc1 (stereo not drawn),-17%,-9%
COc1ccnc(Oc2ccc(F)cc2)c1C(=O)N/C=N/OCc1ccc(Cl)cc1Cl,-19%,-4%
O=C(COc1ccccc1[N+](=O)[O-])NCC1COc2ccccc2O1 (stereo not drawn),-13%,-9%
CN1CCN(c2nc(-c3ccncc3)nc3ccccc23)CC1,-5%,-29%
C=CC[C@H](CC(=O)NCCO)C(=O)NC[C@H](OC(=O)[C@@H](CC=C)Cc1ccc(F)cc1)c1ccccc1,-23%,-13%
COc1ccc(-c2cc(C(F)(F)F)n3nc(-c4ccc(Cl)cc4)cc3n2)cc1OC,-13%,-2%
Cc1ccc(C)c(N2CCN(S(=O)(=O)c3c(C)[nH]c(C)c3C(=O)N3CCCCC3)CC2)c1,-29%,-25%
Cc1ccc(C)c(S(=O)(=O)c2nnn3c2nc(N2CCCCC2)c2sccc23)c1,-25%,?
CN[C@H]1C[C@@H](c2ccccc2)N(C(C)=O)C[C@H]1CO,29%,5%
O=C(CCC(=O)Nc1ccccc1)NNC(=O)c1cccs1,i,-7%

(further entries)
canonical_smiles,Vaccinia mCherry,Vaccinia Venus
CC(=O)N1Cc2cnnn2-c2ccccc2C1(C)C#N (stereo not drawn),-10%,4%
CCCc1nnc(SCC(=O)N2CCCC2)n1CC1CCCO1 (stereo not drawn),-11%,-12%
O=C(Cc1c(F)cccc1Cl)N1CCOCC1,-2%,-4%
COc1cc2c(cc1OC)C(=O)N(C)CC2,-2%,-2%
Cc1ncc(CO)c2cc(-c3nnc(Nc4ccc5c(c4)OCO5)s3)c(=O)oc12,-8%,-5%
O=C1NC[C@@H](CCCCN2C[C@H](Cc3ccccc3)N(CCc3ccccc3)C(=O)C2=O)N(CCc2ccccc2)C1=O,-7%,-5%
CC(C)N(Cc1ccccc1)C(=O)COC(=O)/C=C/c1cnc2ccccc2n1,-4%,-8%
CC(C)OC(=O)c1nnn(-c2nonc2N)c1CSc1ccccn1,/,-30%
CCc1cccc(NC(=O)COC(=O)c2c(-c3ccccc3)noc2C)c1,i,-18%
O=C(Nc1ccc2c(c1)OCCO2)C(c1ccncc1)n1c(=O)c(-c2ccco2)nc2ccccc21 (stereo not drawn),-10%,-7%

More entries.
canonical_smiles,Vaccinia mCherry,Vaccinia Venus
COc1ccc(Cn2c(C)nnc2-c2cnn(C)c2N)cc1,-10%,-13%
Cc1cccc(OCC(O)CN2CCNCC2)c1 (stereo not drawn),i,-6%
Cc1ccccc1OCCCCc1c(C)n[nH]c1C,-25%,-27%
COCc1cc(C)nc(SCC(=O)Oc2ccccc2)c1C#N,-8%,-9%
Cc1ccc(C2N(C)C(=O)c3ccccc3N2C)cc1 (stereo not drawn),?,-19%
CCOc1ccc(/C=C/C(=O)Nc2ccc(N3CCOCC3)cc2)cc1,-2%,-14%
COc1cccc(CNS(=O)(=O)c2c(C)[nH]c(C)c2C(=O)N2CCCCC2)c1,-1%,-6%
CCN(CC)CC(=O)Nc1sc(C)cc1C(=O)c1ccccc1,-9%,-17%
O=C(O)CCCCNS(=O)(=O)/C=C/c1ccccc1,i,-15%
CCN(C(=O)c1cc2cccc(OC)c2oc1=O)c1ccccc1,/,-14%

Next section
canonical_smiles,Vaccinia mCherry,Vaccinia Venus
O=C(Nc1ccccc1)c1oc2ccccc2c1NC(=O)C1CC1,-17%,-12%
CCCC(=O)Oc1ccc2c(C)cc(=O)oc2c1,-18%,-6%
C=C(C)CSc1nc2sc3c(c2c(=O)n1C1CCCCC1)CCN(C)C3,?,-15%
Cc1ccccc1CN1C(=O)c2ccccc2S(=O)c2ccc(C(=O)NCc3ccco3)cc21 (stereo not drawn),-6%,-3%
CC(=O)Nc1cccc(-c2ccnc3c2CC(C(=O)Nc2cccc(OC(F)(F)F)c2)O3)c1 (stereo not drawn),-3%,-11%
CC1(C(=O)NS(=O)(=O)c2cccc(Cl)c2)CCN1C(=O)Cc1ccccc1 (stereo not drawn),11%,3%
O=C(CCCCCCCCC(=O)N/N=C/c1ccco1)N/N=C/c1ccco1,-9%,-25%
CCOC(=O)c1sc(NC(=O)c2sc(C)nc2C)nc1C,-13%,-3%
CN(C)c1ccc(/C=C/c2c(F)cnc3ccccc23)cc1,7%,-14%
CCOC(=O)[C@]12CCC=C1N(CCC1=CCCCC1)C(=O)[C@H](CC(=O)NCc1cccc(C(F)(F)F)c1)C2,-19%,-9%

Structures listed so far with a COOH group (four):
canonical_smiles,Vaccinia mCherry,Vaccinia Venus
O=C(O)C1CCCN1C(=O)Nc1ccccc1 (stereo not drawn),/,20%
C#CCOCCOCCOCCNc1nc(N2CCN(C(=O)C([C@@H](C)O)n3cc([C@@H](N)CCCCN)nn3)CC2)nc(N2CCN(C(=O)[C@H](CCC(=O)O)n3cc([C@@H](N)[C@H](C)CC)nn3)CC2)n1 (stereo partly drawn),i,-14%
CC(C)(C)OC(=O)N1CCC(CC2CC(c3cccc(Br)c3)=NO2)(C(=O)O)CC1 (stereo not drawn),-6%,3%
O=C(O)CCCCNS(=O)(=O)/C=C/c1ccccc1,i,-15%

Continued.
canonical_smiles,Vaccinia mCherry,Vaccinia Venus
O=C(CCn1c(=O)oc2cc(Cl)ccc21)Nc1ccc(O)cc1,9%,-2%
COc1cc(-c2cnc3c(NC=O)cc(-c4cccc(C(F)(F)F)c4)cn23)cc(OC)c1OC,?,?
O=C1NC(=S)SC1=Cc1ccc2c(c1)OCO2,-14%,17%
CC1CCN(C(=O)COC(=O)c2ccc(=O)n(Cc3ccccc3)n2)CC1,i,-14%
O=C(CNC(=O)c1ccccc1F)NCc1ccncc1,i,-12%
O=C(Cn1c(-c2cccs2)cc2ccccc21)NCc1ccccc1Br,-9%,-17%
Nc1ccc(Sc2nnnn2-c2ccccc2)c(Cl)c1,i,-6%
CCc1ccccc1S(=O)(=O)Cc1ccc(C(=O)NCCc2ccccc2)o1,-11%,-4%
COc1cc(Cl)c(C)cc1NC(=O)c1cc(CN2CCOCC2)on1,5%,-7%
